# Source: PubChem (National Center for Advancing Translational Sciences (NCATS))
# Rango dissoc inh: prevents RanGTP from dissociating the Rango-importin beta complex; 340,000 compounds, 0.071% hits; Biochemical FRET Rango-importin beta, RanGTP-induced dissociation; O95149+P62826; AID 540253; Potency, µM (titrated, usually from 46.1 µM), without a hit: top-dose activity change, negative = inhibition; active means falling FRET ratio curve, often poorly fitted, with flat reads before Ran was added; inconclusive means other falling curves, or compound fluorescence or quenching; inactive means flat or rising ratio curve;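 also: potency is read from the fitted curve at half-maximal effect; % of control where 0% means no effect; nearly all actives have a fitted effect of over 45% in size; -100% = wells without RanGTP and RCC1; the record marks most hits as doubtful in a second field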
#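 FRET read at 45 min, room temperature: inhibitors block the CFP/YFP signal rise when RanGTP (0.6 uM Ran, 2 mM GTP, 0.2 uM RCC1) frees Rango (0.1 uM) from importin beta (0.25 uM). Pre-read after 5 min compound exposure flags interference.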
# Rango-impB inh: inhibitors of Rango-importin beta complex formation. Potency, µM (highest dose often 92.2 µM), for inactives: at the highest dose inhibition of complex formation. Rango CFP/YFP FRET sensor + importin beta, 45 min. 340,000 compounds, 0.031% hits. Q14974; active = rising FRET ratio curve, often small or poorly fitted; inconclusive = mostly compound fluorescence or quenching in the first reads; inactive = flat curves in all reads;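 also: potency is read from the fitted curve at half-maximal effect; 0% = DMSO wells and 100% = buffer wells lacking importin beta; nearly all actives have a fitted effect of over 15% in size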
# Target sequence (Q14974 whole entry, looked up): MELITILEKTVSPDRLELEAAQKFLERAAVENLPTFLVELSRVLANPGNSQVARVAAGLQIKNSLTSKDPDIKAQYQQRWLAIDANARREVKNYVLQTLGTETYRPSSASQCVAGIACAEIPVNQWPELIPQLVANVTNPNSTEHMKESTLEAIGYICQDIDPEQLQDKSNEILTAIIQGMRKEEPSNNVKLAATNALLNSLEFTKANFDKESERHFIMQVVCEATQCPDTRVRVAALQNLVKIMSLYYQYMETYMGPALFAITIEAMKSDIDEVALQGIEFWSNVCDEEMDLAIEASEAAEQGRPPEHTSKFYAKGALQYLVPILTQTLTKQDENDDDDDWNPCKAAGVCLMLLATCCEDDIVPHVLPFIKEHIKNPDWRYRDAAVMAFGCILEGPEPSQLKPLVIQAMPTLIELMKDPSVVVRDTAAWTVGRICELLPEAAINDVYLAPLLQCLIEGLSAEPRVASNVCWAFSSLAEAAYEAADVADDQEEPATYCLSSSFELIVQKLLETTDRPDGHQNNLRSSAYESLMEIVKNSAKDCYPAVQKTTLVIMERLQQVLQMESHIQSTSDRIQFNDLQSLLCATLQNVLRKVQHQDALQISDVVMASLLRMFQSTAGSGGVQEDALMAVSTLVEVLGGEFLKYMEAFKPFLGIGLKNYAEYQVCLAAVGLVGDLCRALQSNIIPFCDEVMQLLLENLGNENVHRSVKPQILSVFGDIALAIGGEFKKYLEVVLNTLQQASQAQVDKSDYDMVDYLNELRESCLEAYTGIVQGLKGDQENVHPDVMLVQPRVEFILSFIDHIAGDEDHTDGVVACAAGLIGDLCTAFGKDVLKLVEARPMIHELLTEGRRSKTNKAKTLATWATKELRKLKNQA
#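 FRET biosensor Rango (snurportin 1 IBB between N-terminal EYFP and C-terminal Cerulean), 50 nM in PBS/1 mM DTT/0.02% Tween-20/0.1% BSA, preincubated 5 min RT with compound; 0.125 microM importin beta added, 45 min RT, CFP/YFP FRET ratio read.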
# miR-21 FLuc: raises the signal of a miR-21 reporter | 340,000 tested, under 10 active | Potency, µM (highest dose often 38.3 µM), without a hit: at the top dose reporter change, positive = more light | HeLa miR-21 FLuc reporter, luciferase, 48 h; active = well fitted rising curve with a large enough effect; inconclusive = small, poorly fitted or top-dose-only effect; inactive = no such curve, though single readings can be large or run the other way;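 also: % of control where 0% means no effect; miR-21 action dims this reporter so a rising signal means less miR-21 action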
#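 Using DMEM plus 10% FBS, HeLa miR-21-FLuc cells are incubated with test compounds (final up to about 40uM) for 48 hours; firefly luciferase signal is then imaged following reagent-mediated lysis.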
# GLA inh pH 4.5: inhibitors of human alpha-galactosidase A at pH 4.5; P06280; purified enzyme, 4-MU-alpha-Gal fluorescence, pH 4.5; activity change, negative = inhibition, % at 105 µM; 230,000 tested, under 10 active; AID 1467; inconclusive = small, poorly fitted or top-dose-only inhibition, or a rising curve; inactive = flat fitted curve, though single readings scatter; no compound was filed as active;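 also: 0% = full activity with enzyme and -100% = basal without enzyme; dose as in the result columns while the protocol names 77 µM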
# Numbers without * were called inactive; ? = inconclusive; nt = no result given; [ ] = another dose, or the depositor's remark. Some of the compounds tested; count on the stated rates, not on these rows.
# Values run as follows: Rango dissoc inh	Rango-impB inh	miR-21 FLuc	GLA inh pH 4.5
- COCCCN1C(=O)C(O)=C(C(=O)c2ccco2)C1c1ccc(Br)cc1 (stereo not given)
→ 48%	1.6%	-5%	-5
- COc1ccccc1N(CC(=O)N/N=C/c1ccc(C(=O)O)cc1)S(=O)(=O)c1ccc(C)cc1
→ -1%	1.9%	2%	1
- Cc1nn(-c2cccc(C(=O)O)c2)c(C)c1[N+](=O)[O-]
→ 6%	-0.6%	-8%	4
- O=C(CN1C(=O)c2cccc3cccc1c23)N1CCc2ccccc2C1
→ ?	?	15%	4
- O=C(c1ccco1)N1CCN(C(=O)C2Cc3ccccc3CN2S(=O)(=O)c2ccc(F)cc2)CC1 (stereo not given)
→ -5%	-5.5%	-2%	-6
- O=C(Nc1ccccc1)c1c(F)cccc1F
→ -11%	1.7%	-15%	0
- Cc1[nH]c2c(ccc3ccccc32)c1C1C(CCN)C1(C)C (stereo not given)
→ 1%	-3.8%	?	4
- S=c1[nH]nc(-c2cccnc2)n1-c1ccc2c(c1)OCCO2
→ -9%	0.6%	-15%	2
- C1CCc2c(nc3nnnn3c2NC2CCCC2)C1
→ 23%	-0.2%	-5%	2
- Cc1cccc(-n2c(-c3ccccc3)c[nH]c2=S)c1C
→ -2%	-1.3%	5%	nt
- COCCNC(=O)C(c1ccc(C)o1)N(CC1CCCO1)C(=O)Cn1nnc2ccccc21 (stereo not given)
→ -11%	2.0%	-4%	-8
- NC[C@H]1O[C@H](O[C@H]2[C@H](O)[C@@H](O[C@H]3O[C@H](CO)[C@@H](O)[C@H](N)[C@H]3O)[C@H](N)C[C@@H]2N)[C@H](N)C[C@@H]1O
→ 0%	-3.0%	-1%	nt
- CC(NC(=S)NC1CCC(C(C)(C)C)CC1)c1ccccc1 (stereo not given)
→ -7%	0.2%	5%	nt
- CCOC(=O)C1CN(S(C)(=O)=O)c2cc(CC(=O)OC)ccc2O1 (stereo not given)
→ 39%	-0.1%	-1%	-3
- CN(Cc1ccccc1)C(=O)c1[nH]cnc1C(=O)NCC(=O)OC(C)(C)C
→ 17%	-0.2%	3%	nt
- CC(C)CC(NS(=O)(=O)c1ccccc1)C(=O)O (stereo not given)
→ 16%	7.1%	-1%	6
- CCCNC(=O)C(Cc1ccccc1C)NC(=O)c1ccc(C(F)(F)F)cc1 (stereo not given)
→ 22%	4.7%	nt	nt
- C[C@H]1CN([C@@H](C)CO)C(=O)c2cc(NC(=O)c3ccncc3)ccc2O[C@H]1CN(C)Cc1ccc(C(=O)O)cc1
→ 3%	0.3%	nt	nt
- COc1ccc(/C=C/C(=O)NC(=S)Nc2ccccn2)cc1
→ -6%	2.6%	-51%	nt
- COc1cccc(C2NC(=O)CCC2[N+](=O)[O-])c1 (stereo not given)
→ -4%	2.2%	0%	nt
- Cc1nn(CC(=O)NCCCN2C(C)CCCC2C)c(=O)c2cc3occc3n12 (stereo not given)
→ -15%	2.3%	-2%	nt
- Cc1ccc(C(=O)C[n+]2cccc3cc(C)ccc32)cc1
→ 2%	1.4%	18%	-6
- O=C(Nc1ccccc1N(C(=O)c1ccco1)S(=O)(=O)c1cccs1)c1ccco1
→ 19%	-0.8%	20%	2
- CC(C)CC(NS(=O)(=O)OCC(Cl)(Cl)Cl)c1ccccc1 (stereo not given)
→ 19%	-2.4%	10%	nt
- COc1ccc(CCNC(=O)c2cccc(-n3cnnn3)c2)cc1
→ -1%	2.0%	nt	nt
- NC(=O)c1c(NC(=O)C2CC=CCC2C(=O)O)sc2c1CCCCC2 (stereo not given)
→ -21%	?	-3%	nt
- O=C(Cn1cc([N+](=O)[O-])ccc1=O)NCc1ccc(Cl)cc1Cl
→ 18%	-0.6%	-55%	nt
- COC(=O)C1=C(C(=O)OC)[C@@H]2N(C)c3ccc(OC)cc3[C@@]23C[C@@H](C(=O)OC)N(C(=O)COCc2ccccc2)C3=N1
→ -5%	0.3%	nt	11
- CCOC(=O)N1CCN(S(=O)(=O)c2ccc3c(c2)SC(C)C(=O)N3)CC1 (stereo not given)
→ 1%	0.3%	7%	-6
- CCOc1ccccc1C(=O)N(Cc1ccccc1)Cc1cc2cc3c(cc2[nH]c1=O)OCCO3
→ -2%	-3.5%	nt	nt

# Another view of 2 compounds above:
SMILES | Rango dissoc inh | Rango-impB inh | miR-21 FLuc | GLA inh pH 4.5
COCCNC(=O)C(c1ccc(C)o1)N(CC1CCCO1)C(=O)Cn1nnc2ccccc21 (stereo not given) | -11% | 2.0% | -4% | -8
NC[C@H]1O[C@H](O[C@H]2[C@H](O)[C@@H](O[C@H]3O[C@H](CO)[C@@H](O)[C@H](N)[C@H]3O)[C@H](N)C[C@@H]2N)[C@H](N)C[C@@H]1O | 0% | -3.0% | -1% | nt

# More entries follow:
# Values run as follows: Rango dissoc inh	Rango-impB inh	miR-21 FLuc	GLA inh pH 4.5
- COc1ccc(OC)c(NC(=S)N2CCN(C(=O)C3CCCO3)CC2)c1 (stereo not given)
→ -9%	2.3%	5%	nt
- COc1cc(OC)cc(C(=O)OCC(=O)N2CCCC2)c1
→ 0%	-1.1%	-2%	nt
- COc1ccc(-c2ccc3c(c2)[C@@H]2C[C@H](N(C)S(=O)(=O)c4ccccc4)[C@H]([C@H](C)O)C(=O)N2CC3)cc1
→ -9%	-1.3%	nt	nt
- COc1ccc(C2OCC3(CO2)SC(N)=NC3=O)cc1 (stereo not given)
→ 0%	5.4%	-3%	2
- CCCn1c(C)nc2c(c1=O)c1nc3ccccc3nc1n2-c1ccccc1
→ 0%	0.0%	nt	nt
- COc1ccccc1NS(=O)(=O)c1cccc(C(=O)NCc2ccco2)c1
→ -4%	-1.6%	2%	1
- CCOC(=O)Cn1c(-c2ccc(Cl)nc2)nc2ccccc21
→ 15%	-4.0%	-2%	-7
- Cc1nc(SCC(=O)NCCc2ccccc2)c2c(=O)n(C)c(=O)n(C)c2n1
→ -13%	?	5%	nt
- O=C(NCCCn1ccnc1)c1ccc(S(=O)(=O)Nc2ccccc2)cc1
→ -11%	-2.9%	3%	-8
- O=C(O)CS(=O)(=O)c1ccc(Oc2ccc(S(=O)(=O)CC(=O)O)cc2)cc1
→ 6%	0.4%	-4%	8
- CC(C)CC(NC(=O)C1CCCN1C(=O)[C@@H](C)NC(=O)OCc1ccccc1)C(=O)NCC(N)=O (stereo not given in full)
→ 6%	1.5%	-11%	nt
- C/C(=N/NS(=O)(=O)c1ccc(C)cc1)c1c(O)c2ccccc2oc1=O
→ -12%	-0.6%	-2%	1
- CCOc1cc(NC(=S)Nc2cccc(OC)c2)c(OCC)cc1NC(=O)C(C)C
→ 1%	1.2%	-5%	1
- Cn1c(NNC(=O)C(c2ccccc2)c2ccccc2)cc(=O)n(C)c1=O
→ -11%	-0.2%	7%	2[21.1 µM]
- CCc1nnc(NC(=O)CN2CCN(Cc3cccc(F)c3)CC2)s1
→ 1%	-0.3%	-7%	nt
- Cc1cnccc1NC(=O)c1cccs1
→ 0%	-1.8%	7%	20
- CN(C)S(=O)(=O)c1ccc(C(=O)NCc2cccs2)cc1
→ -16%	-0.6%	-13%	-2
- CC(C)(C)OC(=O)N1CCC(CNC(=O)c2ccccc2)CC1
→ 16%	-4.4%	-5%	5
- COc1cc(/C=C/C(=O)OCC(=O)c2c(N)n(C)c(=O)n(C)c2=O)ccc1O
→ -16%	?	-7%	-25
- CCCOc1ccccc1NC(=O)Nc1ccccc1Cl
→ -11%	0.9%	2%	-2
- COc1ccccc1CNC(=O)c1oc2ccccc2c1C
→ 1%	-1.9%	-3%	nt
- O=C(NC1CC2CCC1C2)c1ccco1 (stereo not given)
→ -9%	6.9%	-1%	nt
- CC(C)c1cc(CN2C(C)COCC2C)cc(C(C)C)c1O (stereo not given)
→ -3%	-1.1%	nt	nt
- CCCCN(C(=O)c1c(CC)noc1C)c1c(N)n(CCC)c(=O)[nH]c1=O
→ -14%	?	nt	nt
- CN(CCOc1ccccc1)C(=O)c1cc([N+](=O)[O-])cc([N+](=O)[O-])c1
→ -4%	-1.1%	1%	-1
- CCOc1cc(Cl)c(NC(C)=O)cc1OCC
→ -8%	1.2%	0%	1
- CN(C(=O)c1c(Cl)nc2sccn12)C1CCCCC1
→ -4%	1.9%	-2%	0
- Cc1ccc(N2CCN(Cc3ccccc3)CC2=O)c(C)c1
→ -16%	1.2%	1%	nt
- c1ccc2c(CNc3ccc(CNc4ncn[nH]4)cc3)cccc2c1
→ 2%	-0.4%	-20%	-2
- COC(=O)c1ccsc1NC(=O)c1ccc(Cl)s1
→ -27%	0.9%	0%	-3
- COc1ccc(N2CCN(C(=O)COC(=O)/C=C/c3ccc(C(F)(F)F)cc3)CC2)cc1
→ -14%	-3.0%	nt	nt
- Cc1cc(OCC(=O)OCC(=O)NC2CCCCC2C)ccc1Cl (stereo not given)
→ 9%	1.8%	nt	nt
- COc1ccc(S(=O)(=O)N2CCC(C(=O)NCc3cccnc3)CC2)cc1OC
→ 0%	-1.0%	0%	nt
- c1ccc(NC2=NCCN2CCC2CCCC2)cc1
→ 25%	-2.0%	-3%	nt
- Cc1csc(SCC(=O)Nc2cccc3nsnc23)n1
→ ?	?	11%	-6
- COc1ccccc1OCCC(=O)Nc1nc(C)cs1
→ -3%	2.0%	-9%	8
- CCc1ccc(-c2cc(C(=O)Nc3ccc(S(=O)(=O)NC(C)=O)cc3)c3ccccc3n2)cc1
→ 1%	-5.9%	-29%	6
- COC(=O)c1nc(NC(=O)c2ccc(Cl)cc2)n[nH]1
→ 14%	2.8%	-1%	8
- Cc1ccc(OCC(=O)NCCc2c[nH]c3ccccc23)cc1
→ 0%	-3.7%	2%	-3
- Cc1ccccc1OCC(=O)NNC(=O)c1ccc(-n2cncn2)c([N+](=O)[O-])c1
→ -1%	-3.5%	nt	nt
- COc1ccc(Cl)cc1NC(=O)CN(C)C(=O)c1ccc2c(c1)CC(c1ccccc1)OC2=O (stereo not given)
→ 1%	0.3%	nt	nt
- CCCOC1CCCN(C(=O)c2ccc(OC)c(OC3CCN(C(C)C)CC3)c2)C1 (stereo not given)
→ 23%	-4.5%	-11%	nt
- CCCC1(C(=O)O)NC(c2ccc(OC)cc2O)C2C(=O)N(c3ccc(OC)cc3)C(=O)C21 (stereo not given)
→ 14%	0.3%	-2%	-3
- COC(=O)c1ccc2nc(C)cc(Nc3ccccc3C)c2c1
→ 16%	3.0%	-1%	-16
- CNC(C)C(=O)NC(C(=O)N1CCCC1C(=O)NNc1ccccc1)C(C)C (stereo not given)
→ -8%	9.2%	nt	nt
- CCc1ccc(NC(=O)C2CCCN(S(=O)(=O)c3ccc4c(c3)CC(C)N4C(C)=O)C2)cc1 (stereo not given)
→ -9%	-1.1%	30%	nt
- CCOC(=O)C1CCCN(c2cc(C)nc3cc(-c4ccc(F)cc4)nn23)C1 (stereo not given)
→ 6%	6.6%	-7%	5
- CC1(C)Cc2ccccc2C(=NCCCC(=O)O)N1
→ -5%	-0.3%	-2%	2
- Cc1ccc(NC(=O)[C@H](C)NC(=O)C2CCN(C(=O)[C@@H](N)C(C)C)CC2)cc1
→ 14%	0.5%	-6%	nt
- CC1CCN(c2c(NCc3ccc(C(=O)NCc4cccnc4)cc3)c(=O)c2=O)CC1
→ -3%	-0.9%	-8%	4
- Cc1cccc(C(=O)NC(=S)NNC(=O)COc2c(C)cccc2C)c1
→ -3%	-2.4%	-16%	2
- COc1ccc(-c2sccc2C(C)C(=O)O)cc1 (stereo not given)
→ 0%	-5.2%	-2%	-4
- COC(=O)c1cc2ccsc2n1Cc1cccc(F)c1
→ 10%	-1.1%	-24%	-5
- Cc1ccc2c(C)c(C(=O)Nc3cccnc3)oc2c1C
→ 8%	-0.9%	nt	nt
- CC(C)C(=O)Nc1ncc(C(F)(F)F)cc1Cl
→ 0%	-1.3%	-2%	3
- CCOC(=O)C1=C(c2ccccc2)NC(=O)NC1c1ccc(OCC#N)c(OC)c1 (stereo not given)
→ -4%	-1.3%	-9%	5
- O=S(=O)(Nc1ccccc1N1CCCCC1)c1ccc(F)cc1
→ 1%	0.3%	2%	-5
- O=C(CSc1nnc(COc2ccccc2)o1)c1ccccc1
→ 13%	-3.8%	-3%	4
- CS(=O)(=O)Nc1ccc(C(=O)NCCC2=CCCCC2)cc1
→ 12%	4.6%	-55%	8
